Screening results: PubChem BioAssay, Broad Institute
Yeast UUG start = yeast start codon fidelity modulation; 350,000 tested, 0.13% active; activity score, % at 18.7 µM; S. cerevisiae UUG-firefly luciferase reporter, luminescence/redox ratio;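 active means replicate mean at a twofold rise or more, about +100% in these data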;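 further: firefly luciferase made from a UUG start codon reports start codon fidelity; reporter light over untreated wells divided by growth signal over untreated wells; some hits fall short of that in this replicate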
HIV Env fusion = HIV envelope-mediated fusion inhibition. inhibition, % at 12.3 µM. AID 651610. HeLa-JRFL Env/CEM21 cell fusion, luciferase. 360,000 tested, 1.1% active;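 active means mean replicate inhibition score of at least 50 and every replicate individually at or above 50; inconclusive means only one of the two criteria met; inactive means mean below 50 and not all replicates reaching 50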;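 further: 0% = plate neutral controls and 100% = maraviroc near 300 nM; one replicate is shown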
* = called active by the depositor; ? = inconclusive; [ ] = remark or other dose. Not all compounds are listed; count on the stated rates, not on these rows.

SMILES	Yeast UUG start	HIV Env fusion
CN(C)CC(=O)Nc1ccc2c(c1)[C@H]1C[C@@H](CC(=O)N3CCOCC3)O[C@H](CO)[C@H]1O2	-10.8	-10.3[16.7 µM]
COc1ccc(NC(=O)N2C[C@H](O)COC[C@@H]3O[C@@H](CC(=O)N4CCCCC4)CC[C@H]32)cc1	-6.8	6.8[16.7 µM]
C[C@H]1CN([C@@H](C)CO)C(=O)Cc2cc(NC(=O)NC3CCCCC3)ccc2O[C@@H]1CN(C)S(=O)(=O)c1ccc(Cl)cc1	-8.5	-0.4[16.7 µM]
CS(=O)(=O)N1[C@@H](C#N)[C@@H](c2ccc(C#Cc3cccc(F)c3)cc2)[C@@H]1CO	0.5	-4.5[16.7 µM]
COc1cccc(NC(=O)N[C@H]2C=C[C@@H](CC(=O)N3CCOCC3)O[C@@H]2CO)c1	-5.2	-26.8[16.7 µM]
O=C(CCCCCCC(=O)Nc1ccc(CO)cc1)NOCc1ccccc1	-0.4	-8.9[16.7 µM]
O=C(O)CCCCCCC(=O)Nc1ccc(C2OC(CSc3ccncc3)CC(c3ccccc3)O2)cc1 (stereo unspecified)	-13.7	7.9[16.7 µM]
CC(C)NC(=O)N(C)C[C@H]1Oc2cc(-c3cccnc3)ccc2S(=O)(=O)N([C@@H](C)CO)C[C@@H]1C	-3.9	1.2[16.7 µM]
CCNC(=O)C[C@@H]1CC[C@H]2[C@@H](COc3ccc(NC(=O)c4ccccc4Cl)cc3C(=O)N2C)O1	20.6	-6.1[16.7 µM]
C/C=C/c1cnc2c(c1)C(=O)N([C@@H](C)CO)C[C@H](C)[C@@H](CN(C)C(=O)c1cccnc1)O2	-5.7	-13.9[16.7 µM]
CNC[C@H]1OCCCC[C@H](C)Oc2ccc(NS(=O)(=O)c3cn(C)cn3)cc2C(=O)N([C@@H](C)CO)C[C@H]1C	-2.5	-17.3[16.7 µM]
COCCNC(=O)C[C@H]1C[C@@H]2c3cc(NC(=O)c4ccc5c(c4)OCO5)ccc3O[C@@H]2[C@H](CO)O1	-1.7	9.0[16.7 µM]
C[C@H]1CCCCO[C@H](CN(C)C(=O)Nc2ccc(F)cc2)[C@@H](C)CN([C@@H](C)CO)C(=O)c2cc(NC(=O)CCC(F)(F)F)ccc2O1	2.1	-22.1[16.7 µM]
O=C(C[C@@H]1CC[C@@H](NC(=O)Nc2ccc3c(c2)OCO3)[C@@H](CO)O1)NCc1ccc(Cl)cc1	-0.1	5.6[16.7 µM]
Cc1noc(C)c1NC(=O)N(C)C[C@@H]1Oc2ncc(C#CC3CC3)cc2C(=O)N([C@@H](C)CO)C[C@H]1C	3.3	-13.0[16.7 µM]
C[C@@H]1CN([C@@H](C)CO)S(=O)(=O)c2ccc(C#CC3(O)CCCC3)cc2O[C@@H]1CN(C)C(=O)Cc1ccccc1	2.1	-94.9[16.7 µM]
C[C@H](CO)N1C[C@H](C)[C@H](CN(C)CC2CCOCC2)Oc2cc(C#CC3CC3)ccc2S1(=O)=O	7.3	-15.9[16.7 µM]
C[C@@H]1CCCCO[C@@H](CN(C)S(C)(=O)=O)[C@@H](C)CN([C@@H](C)CO)C(=O)c2cc(NC(=O)CCC(F)(F)F)ccc2O1	9.3	-12.4[16.7 µM]
C[C@@H]1CCCCO[C@@H](CN(C)Cc2ccc(C(=O)O)cc2)[C@H](C)CN([C@@H](C)CO)C(=O)c2cc(NC(=O)CCC(F)(F)F)ccc2O1	-3.8	12.6[16.7 µM]
C[C@H]1CN([C@@H](C)CO)S(=O)(=O)c2ccc(-c3ccncc3)cc2O[C@@H]1CN(C)C(=O)C1CCCCC1	6.8	6.7[16.7 µM]
CC(C)NC(=O)Nc1ccc2c(c1)C(=O)N([C@H](C)CO)C[C@H](C)[C@H](CN(C)S(C)(=O)=O)OCCCC[C@H](C)O2	-5.4	6.7[16.7 µM]
CCC(=O)Nc1ccc2c(c1)C(=O)N(C)[C@H]1CC[C@H](CC(=O)NCCCN(C)C)O[C@H]1CO2	0.5	-9.8[16.7 µM]
COc1ccc(NC(=O)Nc2ccc3c(c2)CC(=O)N([C@H](C)CO)C[C@@H](C)[C@@H](CN(C)Cc2ccc(Oc4ccccc4)cc2)O3)cc1	15.5	27.4[16.7 µM]
O=C(Nc1ccccc1F)N[C@H]1C=C[C@H](CC(=O)N2CCCCC2)O[C@H]1CO	5.8	-7.2[16.7 µM]
C[C@H](CO)N1C[C@H](C)[C@H](CN(C)Cc2ccc(Cl)c(Cl)c2)Oc2ccc(NC(=O)NC3CCCCC3)cc2C1=O	2.9	9.9[16.7 µM]
Later entries
SMILES	Yeast UUG start	HIV Env fusion
C[C@H](CO)N1C[C@H](C)[C@H](CN(C)C(=O)Nc2ccc3c(c2)OCO3)Oc2ncc(C#CC3(O)CCCC3)cc2C1=O	22.4	22.2[16.7 µM]
CCCC(=O)Nc1ccc2c(c1)C(=O)N(C)C[C@@H](OC)[C@H](C)CN(C(=O)c1ccncc1)[C@@H](C)CO2	-8.2	-0.6[16.7 µM]
O=C(C[C@H]1CC[C@@H]2NC[C@@H](O)COC[C@H]2O1)NC1Cc2ccccc2C1	-2.8	8.5[16.7 µM]
CCC(=O)N[C@@H]1CC[C@H](CCNC(=O)Nc2ccc(F)cc2)O[C@H]1CO	-13.7	-3.9[16.7 µM]
C[C@@H]1CN([C@@H](C)CO)C(=O)c2cc(C3=CCCC3)cnc2O[C@H]1CN(C)Cc1cccc(F)c1	45.6	-7.3[16.7 µM]
COCC#Cc1ccc2c(c1)O[C@H](CN(C)C(=O)Nc1ccc(OC)cc1)[C@H](C)CN([C@@H](C)CO)S2(=O)=O	-1.6	-33.9[16.7 µM]
COc1cc2c(cc1O)C=[N+](Cc1cc3c(cc1Br)OCO3)CC2	2.6	-3.1[16.7 µM]
O=C(C[C@H]1CC[C@H](NC(=O)C2CC2)[C@@H](CO)O1)NC1CCC1	-3.3	11.2[16.7 µM]
O=C(C[C@@H]1CC[C@H](NS(=O)(=O)c2ccccc2)[C@@H](CO)O1)NCc1ccccc1F	1.2	1.6[16.7 µM]
COCC(=O)N(C)C[C@@H]1Oc2cc(-c3cccnc3)ccc2S(=O)(=O)N([C@H](C)CO)C[C@@H]1C	-4.1	-54.7[16.7 µM]
C[C@@H]1CCCCO[C@H](CN(C)Cc2ccc(C(F)(F)F)cc2)[C@@H](C)CN([C@H](C)CO)C(=O)c2cc(NS(=O)(=O)c3cccs3)ccc2O1	-6.3	-18.0[16.7 µM]
CCCNC(=O)N1C[C@H](O)COC[C@@H]2O[C@H](CC(=O)N[C@@H]3CCN(Cc4ccccc4)C3)CC[C@H]21	-2.1	-7.8[16.7 µM]
C[C@@H]1CN([C@@H](C)CO)C(=O)c2cccc(NS(=O)(=O)c3ccccc3)c2O[C@H]1CN(C)C(=O)Nc1ccc2c(c1)OCO2	15.9	1.5[16.7 µM]
C[C@@H]1CCCCO[C@H](CN(C)C(=O)c2ccccc2)[C@@H](C)CN([C@@H](C)CO)C(=O)c2cc(NC(=O)Nc3ccccc3)ccc2O1	6.2	5.9[16.7 µM]
C[C@@H]1CN([C@H](C)CO)S(=O)(=O)c2ccc(-c3ccncc3)cc2O[C@H]1CN(C)Cc1ccccc1	2.9	23.1[16.7 µM]
COCC#Cc1ccc2c(c1)O[C@@H](CN(C)C(=O)Nc1ccccc1F)[C@@H](C)CN([C@H](C)CO)S2(=O)=O	7.9	19.1[16.7 µM]
C[C@@H]1CCCCO[C@H](CN(C)C(=O)Nc2ccc3c(c2)OCO3)[C@@H](C)CN([C@H](C)CO)C(=O)c2cc(NC(=O)c3ccncc3)ccc2O1	-4.7	18.1[16.7 µM]
CCCN(C)C[C@@H]1Oc2cc(C#Cc3ccccn3)ccc2S(=O)(=O)N([C@@H](C)CO)C[C@@H]1C	-7.0	3.6[16.7 µM]
COc1ccc(CN(C)C[C@H]2Oc3ccc(NC(=O)Nc4ccc(C(F)(F)F)cc4)cc3C(=O)N([C@H](C)CO)C[C@H]2C)cc1	2.3	8.7[16.7 µM]
O=C(NCC[C@H]1CC[C@@H](NS(=O)(=O)c2ccc(F)cc2)[C@H](CO)O1)Nc1ccc(Cl)cc1	18.4	-6.2[16.7 µM]
O=C(C[C@@H]1C=C[C@H](NS(=O)(=O)c2ccc(F)cc2)[C@@H](CO)O1)NCCc1ccncc1	-16.7	-3.7[16.7 µM]
CCC(=O)N(C)C[C@@H]1Oc2cc(/C=C/c3ccccc3)ccc2S(=O)(=O)N([C@@H](C)CO)C[C@H]1C	0.8	11.9[16.7 µM]
COc1ccc(CNC(=O)C[C@@H]2C=C[C@@H](NS(=O)(=O)c3cccc(OC)c3)[C@H](CO)O2)cc1	-2.6	-0.9[16.7 µM]
CCCC(O)C#Cc1cnc2c(c1)C(=O)N([C@H](C)CO)C[C@H](C)[C@H](CN(C)C(=O)Nc1c(C)noc1C)O2 (stereo partly specified)	12.0	4.8[16.7 µM]
COc1ccc(-c2ccc([C@@H]3[C@@H](C#N)N(C(=O)NC4CCCC4)[C@H]3CO)cc2)cc1	-10.1	24.0[16.7 µM]
Further records follow.
SMILES	Yeast UUG start	HIV Env fusion
CCCNC(=O)N(C)C[C@@H]1Oc2ncc(-c3cccc(C#N)c3)cc2C(=O)N([C@@H](C)CO)C[C@@H]1C	2.2	-4.6[16.7 µM]
COc1cccc(-c2ccc3c(c2)O[C@@H](CN(C)C)[C@H](C)CN([C@H](C)CO)S3(=O)=O)c1	7.5	2.4[16.7 µM]
C[C@@H]1CCCCO[C@H](CN(C)S(C)(=O)=O)[C@@H](C)CN([C@@H](C)CO)C(=O)c2cc(NC(=O)C3CCCCC3)ccc2O1	4.2	-7.4[16.7 µM]
C[C@@H]1CN([C@@H](C)CO)S(=O)(=O)c2ccc(C#Cc3ccncc3)cc2O[C@H]1CN(C)C(=O)c1ccncc1	-5.8	?
C[C@H](CO)N1C[C@H](C)[C@@H](CN(C)S(C)(=O)=O)Oc2ncc(C#CC3(O)CCCC3)cc2C1=O	3.0	-2.2[16.7 µM]
COC(=O)C[C@H]1C[C@@H]2c3cc(NS(=O)(=O)c4ccccc4)ccc3O[C@@H]2[C@@H](CO)O1	6.2	16.5[16.7 µM]
Cc1ccc(S(=O)(=O)Nc2ccc3c(c2)C(=O)N([C@@H](C)CO)C[C@H](C)[C@@H](CN(C)C(=O)NC2CCCCC2)OCCCC[C@H](C)O3)cc1	-7.2	18.0[16.7 µM]
CN1C(=O)c2cc(NC(=O)C3CCOCC3)ccc2OC[C@@H]2O[C@H](CC(=O)NCC3CC3)CC[C@@H]21	-3.5	1.9[16.7 µM]
Cc1ccc(-c2ccc3c(c2)O[C@@H](CN(C)S(C)(=O)=O)[C@H](C)CN([C@H](C)CO)S3(=O)=O)cc1	5.8	6.5[16.7 µM]
C[C@@H]1CN([C@H](C)CO)S(=O)(=O)c2ccc(-c3ccncc3)cc2O[C@@H]1CN(C)C(=O)CN(C)C	-7.6	-1.9[16.7 µM]
CC(C)CC#Cc1ccc2c(c1)O[C@H](CN(C)C(=O)CN(C)C)[C@H](C)CN([C@@H](C)CO)S2(=O)=O	13.9	-9.8[16.7 µM]
C[C@H]1CN([C@@H](C)CO)C(=O)Cc2cc(NC(=O)Cc3ccccc3)ccc2O[C@@H]1CN(C)C(=O)Nc1ccccc1	6.8	19.9[16.7 µM]
COc1ccc(S(=O)(=O)N(C)C[C@@H]2OCCCC[C@@H](C)Oc3ccc(NS(=O)(=O)c4ccccc4)cc3C(=O)N([C@@H](C)CO)C[C@H]2C)cc1	1.7	-2.5[16.7 µM]
COc1ccc(NC(=O)N(C)C[C@@H]2Oc3c(NC(=O)Nc4ccc(C(F)(F)F)cc4)cccc3C(=O)N([C@@H](C)CO)C[C@@H]2C)cc1	-0.8	-6.8[16.7 µM]
C[C@H]1CCCCO[C@@H](CN(C)Cc2ccc(C(=O)O)cc2)[C@@H](C)CN([C@@H](C)CO)C(=O)c2cc(NC(=O)CCCN(C)C)ccc2O1	-10.9	-8.1[16.7 µM]
CC(=O)Nc1ccc2c(c1)C(=O)N(C)[C@H]1CC[C@@H](CC(=O)NCc3ccccc3Cl)O[C@H]1CO2	2.3	16.0[16.7 µM]
COc1cccc(-c2cnc3c(c2)C(=O)N([C@@H](C)CO)C[C@H](C)[C@H](CN(C)Cc2cccnc2)O3)c1	-10.4	-8.0[16.7 µM]
C[C@H](O)C#Cc1cnc2c(c1)C(=O)N([C@H](C)CO)C[C@@H](C)[C@@H](CN(C)Cc1cccc(F)c1)O2	-9.3	14.2[16.7 µM]
O=C(C[C@H]1C=C[C@H](NC(=O)c2cnccn2)[C@@H](CO)O1)NCc1ccccc1F	-6.8	-1.8[16.7 µM]
COc1ccccc1S(=O)(=O)N(C)C[C@H]1Oc2cc(C#CCC3CCCC3)ccc2S(=O)(=O)N([C@@H](C)CO)C[C@@H]1C	-2.6	28.0[16.7 µM]
CO[C@@H]1CN(C)C(=O)c2cc(NC(=O)Nc3ccccc3Cl)ccc2OC[C@@H](C)N(Cc2ccccc2C(=O)O)C[C@H]1C	5.0	2.9[16.7 µM]
CCCNC(=O)N(C)C[C@H]1Oc2cc(C#C[C@H](C)O)ccc2S(=O)(=O)N([C@H](C)CO)C[C@H]1C	-5.3	-7.1[16.7 µM]

In the list so far, 4 contain two or more sulfur atoms:
SMILES	Yeast UUG start	HIV Env fusion
C[C@@H]1CCCCO[C@H](CN(C)Cc2ccc(C(F)(F)F)cc2)[C@@H](C)CN([C@H](C)CO)C(=O)c2cc(NS(=O)(=O)c3cccs3)ccc2O1	-6.3	-18.0[16.7 µM]
Cc1ccc(-c2ccc3c(c2)O[C@@H](CN(C)S(C)(=O)=O)[C@H](C)CN([C@H](C)CO)S3(=O)=O)cc1	5.8	6.5[16.7 µM]
COc1ccc(S(=O)(=O)N(C)C[C@@H]2OCCCC[C@@H](C)Oc3ccc(NS(=O)(=O)c4ccccc4)cc3C(=O)N([C@@H](C)CO)C[C@H]2C)cc1	1.7	-2.5[16.7 µM]
COc1ccccc1S(=O)(=O)N(C)C[C@H]1Oc2cc(C#CCC3CCCC3)ccc2S(=O)(=O)N([C@@H](C)CO)C[C@@H]1C	-2.6	28.0[16.7 µM]
